miR-21 reporter: raises the signal of a miR-21 reporter. HeLa miR-21 FLuc reporter, luciferase, 48 h. Potency, µM (series often up to 38.3 µM), inactives show at the highest dose reporter change, positive = more light. AID 2288. 340,000 tested, under 10 active; active = well fitted rising curve with a large enough effect; inconclusive = small, poorly fitted or top-dose-only effect; inactive = no such curve, though single readings can be large or run the other way;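 also: % of control where 0% means no effect; miR-21 action dims this reporter so a rising signal means less miR-21 action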
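HeLa cells stably expressing CMV-driven firefly luciferase with a downstream miR-21 binding sequence, endogenously expressing miR-21, were treated with titrations (up to about 40uM final) for 48 hours at 37 degree Celsius. Luciferase luminescence was read after lysis.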
Rango-impB inh: Rango-importin beta binding inhibition; Q14974; Rango CFP/YFP FRET sensor + importin beta, 45 min; Potency, µM (highest dose often 92.2 µM), inactives show top-dose inhibition of complex formation; 340,000 compounds, 0.031% hits; active = rising FRET ratio curve, often small or poorly fitted; inconclusive = mostly compound fluorescence or quenching in the first reads; inactive = flat curves in all reads;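 also: potency is read from the fitted curve at half-maximal effect; 0% = DMSO wells and 100% = buffer wells lacking importin beta; nearly all actives have a fitted effect of over 15% in size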
Target sequence (Q14974 whole entry, looked up): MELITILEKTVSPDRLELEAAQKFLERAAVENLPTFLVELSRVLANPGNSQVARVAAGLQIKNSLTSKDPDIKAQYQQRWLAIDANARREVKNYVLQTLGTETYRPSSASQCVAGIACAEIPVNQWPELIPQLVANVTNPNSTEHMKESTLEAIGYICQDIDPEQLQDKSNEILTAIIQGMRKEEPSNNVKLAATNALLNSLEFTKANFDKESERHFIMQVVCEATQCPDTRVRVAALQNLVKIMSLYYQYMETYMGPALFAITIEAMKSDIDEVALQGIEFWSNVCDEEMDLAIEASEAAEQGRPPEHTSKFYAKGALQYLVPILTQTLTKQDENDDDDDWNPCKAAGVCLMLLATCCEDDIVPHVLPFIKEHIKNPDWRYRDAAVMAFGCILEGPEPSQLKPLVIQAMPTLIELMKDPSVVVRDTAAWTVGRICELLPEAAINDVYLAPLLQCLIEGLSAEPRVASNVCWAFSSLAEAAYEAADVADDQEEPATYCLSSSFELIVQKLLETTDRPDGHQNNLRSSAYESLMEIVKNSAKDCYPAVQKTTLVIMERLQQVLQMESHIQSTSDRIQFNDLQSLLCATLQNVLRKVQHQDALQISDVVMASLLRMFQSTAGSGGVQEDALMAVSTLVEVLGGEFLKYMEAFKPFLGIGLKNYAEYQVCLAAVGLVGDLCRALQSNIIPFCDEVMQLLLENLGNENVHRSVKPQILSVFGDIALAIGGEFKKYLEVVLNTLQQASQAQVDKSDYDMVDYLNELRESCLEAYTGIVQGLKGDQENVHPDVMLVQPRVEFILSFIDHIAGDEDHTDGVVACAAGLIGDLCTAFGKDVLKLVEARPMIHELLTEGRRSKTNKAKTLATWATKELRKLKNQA
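FRET biosensor Rango (snurportin 1 IBB between N-terminal EYFP and C-terminal Cerulean), 50 nM in PBS/1 mM DTT/0.02% Tween-20/0.1% BSA, preincubated 5 min RT with compound; 0.125 microM importin beta added, 45 min RT, CFP/YFP FRET ratio read.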
Rango release inh: prevents RanGTP from dissociating the Rango-importin beta complex | O95149+P62826 | Biochemical FRET Rango-importin beta, RanGTP-induced dissociation | Potency, µM (highest dose often 46.1 µM), for inactives: at the top dose activity change, negative = inhibition | 340,000 compounds, 0.071% hits | AID 540253; active means falling FRET ratio curve, often poorly fitted, with flat reads before Ran was added; inconclusive means other falling curves, or compound fluorescence or quenching; inactive means flat or rising ratio curve;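 also: potency is read from the fitted curve at half-maximal effect; % of control where 0% means no effect; nearly all actives have a fitted effect of over 45% in size; -100% = wells without RanGTP and RCC1; the record marks most hits as doubtful in a second field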
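Rango FRET biosensor (snurportin-1 IBB flanked by N-terminal EYFP and C-terminal CFP10) at 0.1 uM, with 0.25 uM importin beta in PBS, 1mM DTT, 0.02% Tween-20, 0.1% BSA. 0.6 uM Ran, 2mM GTP and 0.2 uM RCC1 were then added for 45 min at room temperature. Inhibition read as loss of FRET rise.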
GLA inh pH 4.5: blocks human alpha-galactosidase A at pH 4.5. P06280. activity change, negative = inhibition, % at 105 µM. purified enzyme, 4-MU-alpha-Gal fluorescence, pH 4.5. 230,000 tested, under 10 active; inconclusive = small, poorly fitted or top-dose-only inhibition, or a rising curve; inactive = flat fitted curve, though single readings scatter; no compound was filed as active;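 also: 0% = full activity with enzyme and -100% = basal without enzyme; dose as in the result columns while the protocol names 77 µM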
An asterisk follows results filed as active; ? = inconclusive; · = not tested or not shown; & = joins results of further samples. Some of the compounds tested. The share of hits here may be higher or lower than overall.

SMILES	miR-21 reporter	Rango-impB inh	Rango release inh	GLA inh pH 4.5
Cc1ccc(C(=O)Nc2c[nH]c(=O)[nH]c2=O)cc1	-25%	1.0%	-7%	·
Cc1ccc(C(=O)C(C)OC(=O)c2cc(=O)[nH]c3ccccc23)cc1 (stereo not given)	·	-0.2%	-13%	·
Cc1cccc(OCC(=O)Oc2ccc(Cl)cc2)c1	·	3.8%	-10%	·
Cc1ncc(CO)c(CNc2ccc(-c3nc4ccccc4[nH]3)cc2)c1O	-24%	-4.6%	-9%	·
c1ccc2c(-n3cnnn3)cccc2c1	-8%	-1.5%	11%	2
O=C1CC2c3ccccc3C1C1C(=O)N(Cc3ccccc3)C(=O)C21 (stereo not given)	0%	0.5%	11%	11
O=C1OC(Cc2ccccc2)C(c2ccccc2)C1=O (stereo not given)	·	1.7%	3%	·
OC(c1nc2ccccc2[nH]1)C(O)c1nc2ccccc2[nH]1 (stereo not given)	-15%	-3.8%	-4%	·
CCOc1ccc(CCNC(=O)C2CCN(c3nn4c(=O)cc(C)nc4s3)CC2)cc1OCC	-10%	-1.0%	-4%	-3
CCOC(=O)[C@H]1[C@H]2COc3ccc(Br)cc3[C@@H]2N2C(=O)CN(Cc3ccc(C)cc3)C(=O)[C@@]12C	·	-0.9%	-6%	·
CC(C)CNC(=O)COc1ccc(Sc2ccc(OCC(=O)NCC(C)C)cc2)cc1	0%	2.9%	-10%	4
CC1(c2ccccc2)CC(C)(C)N2C(=O)Cc3cccc1c32 (stereo not given)	2%	7.6%	-7%	-12
CC12CCC(C(=O)O)(C/C1=N\O)C2(C)C (stereo not given)	-7%&-9%	-0.4%&-6.3%	-1%&-3%	-3&1
CC1Oc2ccccc2N(CC(=O)NCCCN2CCOCC2)C1=O (stereo not given)	0%	-0.7%	-8%	·
CC(C)OP(=O)(c1ccc(N(C)C)cc1)C(O)c1ccncc1 (stereo not given)	0%	0.1%	1%	5
CC(c1ccccc1)N1CC(C(=O)N2CCCC(C(N)=O)C2)CC1=O (stereo not given)	·	-0.3%	10%	·
CC(C)c1nc(C(=O)N2CCCC(CCC(=O)N(C)CCc3ccccn3)C2)cs1 (stereo not given)	-6%	-3.7%	0%	-9
CC(C)Cn1cnc2c1c(=O)n(CC(=O)NN)c(=O)n2Cc1ccccc1	-2%	-0.3%	-6%	·
COc1ccc(CCNC(=O)CCn2c(SCC(=O)N3CCCC3)nc3ccccc3c2=O)cc1OC	2%	3.8%	-3%	7
CN1CCN(CC(=O)Nc2ccccc2[N+](=O)[O-])CC1	-7%	-0.6%	2%	6
Cn1c(=O)c(C(=O)c2ccccc2)nc2ccccc21	0%	1.7%	3%	-10
Cc1cc(=O)[nH]c(SCC(=O)N2c3ccccc3CC2C)n1 (stereo not given)	-7%	0.2%	10%	-4
O=C1CCC(C(=O)NCCCn2ccnc2)N1 (stereo not given)	1%	-0.2%	0%	6
COC1OC(CO)C(N=C(C)C)C1O (stereo not given)	·	-0.6%	3%	·
CC(C)(CNC(=O)c1ccc(Br)o1)CNC(=O)c1ccc(Br)o1	1%	-2.7%	19%	·
Cc1ccc(C(=O)COC(=O)c2cc(Cl)ccc2O)cc1[N+](=O)[O-]	0%	7.1%	-4%	·
CCc1c(C)nc(SCC(=O)Nc2cccc(Br)c2)[nH]c1=O	2%	-4.3%	6%	-8
O=[N+]([O-])c1ccccc1NCc1ccccc1Cl	-8%	-0.3%	-12%	11
COc1cc(SC)ccc1C(=O)NCCOc1ccccc1Cl	-73%	4.4%	-1%	-3
O=[N+]([O-])c1ccc(-c2n(-c3ccccn3)c3ccccc3[n+]2-c2ccccn2)cc1	12%	5.5%	-5%	4

Exported with each value named: part of the list above.
CC(c1ccccc1)N1CC(C(=O)N2CCCC(C(N)=O)C2)CC1=O (stereo not given)
  miR-21 reporter: ·
  Rango-impB inh: -0.3%
  Rango release inh: 10%
  GLA inh pH 4.5: ·

CC(C)c1nc(C(=O)N2CCCC(CCC(=O)N(C)CCc3ccccn3)C2)cs1 (stereo not given)
  miR-21 reporter: -6%
  Rango-impB inh: -3.7%
  Rango release inh: 0%
  GLA inh pH 4.5: -9

Next records:
SMILES	miR-21 reporter	Rango-impB inh	Rango release inh	GLA inh pH 4.5
CCOc1ccccc1NC(=O)C(=O)CC(=O)c1ccc(OC)cc1	-6%	0.8%	15%	·
COc1ccc(S(=O)(=O)N2CCOC23CCN(S(=O)(=O)c2cc(F)ccc2F)CC3)cc1	·	5.7%	20%	·
N#CC(C(=O)NCc1ccccc1)c1nc2ccccc2nc1N1CCCC1 (stereo not given)	-5%	?	?	-17
COc1ccc(CCN=C(N)C(C)c2ccccc2)cc1OC (stereo not given)	-1%	-2.5%	-9%	5
COc1ccc(NC(=O)c2cnc3n(c2=O)CCS3)cc1OC	-8%	-4.8%	10%	-2
CCC1CCc2sc(C(=O)O)cc2C1 (stereo not given)	-5%	?	-15%	8
Cc1cc(C)c2c(N)c(C(=O)C(C)(C)C)sc2n1	-6%	?	-3%	3
COCCNC(=O)c1nn2c(C(F)(F)F)cc(-c3ccccc3)nc2c1Cl	3%	-1.9%	0%	·
COc1ccc(Oc2nccc(-c3ccc(Cl)cc3)n2)cc1	3%	7.5%	9%	-3
COc1cccc(C2c3[nH]c4ccccc4c3CCN2C(=O)Cn2cncn2)c1OC (stereo not given)	1%	-4.2%	-7%	5
Cn1c(Cc2csc(N)n2)nnc1SCC(=O)NCc1ccccc1	-8%	-2.9%	-19%	6
COc1ccc(C2NC(=O)C(C#N)=C(S)N2c2ccc(C)cc2)cc1OC (stereo not given)	-7%	-1.0%	-6%	-10
Cc1cc(S(=O)(=O)NCC(c2ccccc2)c2ccccc2)ccc1-n1cnnn1	5%	2.4%	-13%	-3
CC(=O)NNC(=O)CCn1c2c(c3ccccc31)CCCC2	1%	-2.4%	9%	3
CC1CC(C)CN(C(=O)CSc2nnc(N)s2)C1 (stereo not given)	1%	-0.1%	25%	·
Cc1csc2nc(CSc3nncn3-c3ccccc3)c(Br)n12	-12%	-0.1%	12%	-3
O=C(O)CCCCNS(=O)(=O)c1ccc(Cl)c(C(F)(F)F)c1	-3%	0.0%	0%	-9
Cc1noc(C)c1NC(=O)N(C)C[C@H]1Oc2c(NC(=O)c3ccncc3)cccc2C(=O)N([C@H](C)CO)C[C@@H]1C	·	-3.1%	-12%	·
COC(=O)CCC(=O)NNC(=O)Cc1ccccc1	-9%	-2.2%	6%	0
O=C(Nc1ccc(S(=O)(=O)N2CCOCC2)cc1)c1c(F)cccc1F	-2%	-3.9%	10%	·
Cc1ccc(NC(=O)Cn2nc(C(=O)Nc3ccc(C)cc3)ccc2=O)cc1	-4%&-10%	?	?	·
COc1ccc(/C=C/CN2CCCC(CO)(Cc3cccc(Cl)c3)C2)cc1 (stereo not given)	-3%	-5.5%	-13%	5
CN(CC(=O)Nc1ccccc1Cl)C(=O)COC(=O)CCN1C(=O)C2CC=CCC2C1=O (stereo not given)	·	1.6%	-6%	·
COC(=O)C1=CN(C2CCCCC2)C=C(C(=O)OC)C1c1ccc2c(c1)OCO2	0%	?	-15%	15
COc1ccc(S(=O)(=O)Nc2cc3c4c(oc3c3ccccc23)CCCC4=O)cc1	23%	-0.9%	-12%	-7
O=C(CSc1ncnc2scc(-c3ccccc3)c12)NC1CCS(=O)(=O)C1 (stereo not given)	-11%	0.3%	3%	-13
COCCN(CCOC)C(=O)c1ccc(NS(=O)(=O)c2ccc3[nH]c(=O)[nH]c3c2)cc1	-1%	-0.6%	-4%	·
C[C@@]12C(=O)N(c3ccc(C(F)(F)F)cc3)C(=O)N1[C@@H]1c3ccccc3OC[C@@H]1[C@H]2c1ccccc1	12%	-3.5%	44%	·
O=C(CCc1n[nH]c(=O)[nH]c1=O)Nc1cccc([N+](=O)[O-])c1	1%	0.6%	17%	9
CCOC(=O)Cc1csc(SCC(=O)Nc2sc3c(c2C(N)=O)CCC3)n1	-3%	?	-19%	-12

Results in Rango-impB inh and miR-21 reporter, for 3 of the compounds above:
| mol | Rango-impB inh | miR-21 reporter |
| --- | --- | --- |
| O=C(O)CCCCNS(=O)(=O)c1ccc(Cl)c(C(F)(F)F)c1 | 0.0% | -3% |
| Cc1noc(C)c1NC(=O)N(C)C[C@H]1Oc2c(NC(=O)c3ccncc3)cccc2C(=O)N([C@H](C)CO)C[C@@H]1C | -3.1% | · |
| COC(=O)CCC(=O)NNC(=O)Cc1ccccc1 | -2.2% | -9% |

Following part
SMILES	miR-21 reporter	Rango-impB inh	Rango release inh	GLA inh pH 4.5
Cc1nn(Cc2ccc(Cl)cc2)c(Cl)c1/C=N/NC(=O)CNc1ccccc1F	-9%	0.0%	0%	3
COC(=O)C1=C(C)N(Cc2ccco2)C(=O)N[C@@H]1c1ccc(Br)cc1	·	-1.3%	2%	-2
CSc1nnc(-c2cc(C)on2)n1-c1ccccc1	22%	-1.4%	1%	4
COCCCN1C(=O)c2ccccc2C1C(=O)NC1CCCCCC1 (stereo not given)	2%	-2.1%	2%	4
Cn1c(SCC(=O)Nc2ccccc2Oc2ccccc2)nnc1C1CC1	·	0.6%	-14%	·
CCn1c(SCC(=O)N2CCCCC2)nc2c(c1=O)SCC2	5%	2.8%	-18%	·
CC1CC(C)CN(C(=O)CSc2nc(Cc3cccs3)nc3ccccc23)C1 (stereo not given)	10%	-2.8%	-15%	-13
O=C(COC(=O)COc1cccc(F)c1)NCCC1=CCCCC1	7%	4.8%	20%	-24
CCCOC(=O)c1ccc(NC(=O)C(=O)NCC2CCCO2)cc1 (stereo not given)	-9%	3.5%	24%	4
C=CCOc1ccc(/C(O)=C2\C(=O)C(=O)N(CCCOC)C2c2ccncc2)cc1 (stereo not given)	1%	2.3%	13%	-3
CC(C)(C)C(=O)N=C1SC2CS(=O)(=O)CC2N1c1ccc2c(c1)OCO2 (stereo not given)	-7%	1.6%	6%	-7
COc1ccc(/C=N/NC(=O)c2cc(C)oc2C)cc1OCc1ccccc1	23%	-3.9%	-7%	·
O=C(c1ccc(F)cc1)N1CCC(n2nnc3ccccc32)CC1	-66%	-0.5%	0%	?
C/C(=N\NC(=O)c1ccc(CSc2nc(C)cc(C)n2)cc1)C1CCCCC1	-5%	0.1%	0%	-20
Cc1nnc(SCC(=O)N2CCc3ccccc32)n1-c1ccccc1	0%	2.8%	19%	6
O=C(NCc1ccccc1)C1CC(=O)N(C2CCCCCC2)C1 (stereo not given)	6%	0.1%	5%	2
COC(=O)Cn1cnc2c(C#N)c3n(c2c1=O)CCCC3	1%	-0.6%	-3%	-5
O=C(Nc1ccc(N2CCOCC2)cc1)c1cccc2ccccc12	0%	-1.7%	-8%	·
CN(CC(=O)Nc1ccc(C#N)cc1)Cc1ccc(Cl)c(Cl)c1	-5%	2.0%	15%	0
O=C(NC1CCCc2ccccc21)c1ccc(F)cc1F (stereo not given)	-10%	5.5%	-1%	·
COc1ccc(NC(=O)C(=S)N2CCCC2)cc1	-34%	-3.7%	-9%	-7
COc1ccc2[nH]c(=O)c(NC(N)=S)nc2c1	-9%	4.8%	-14%	-27
COn1c(C)c(C(C)=O)c2c3no[n+]([O-])c3ccc21	0%	?	-12%	-25
CN(CC(=O)Nc1ccc(Cl)cc1)C(=O)CNC(=O)Cc1cccc2ccccc12	·	0.0%	0%	·
CCOC(=O)c1c(-c2ccc(C)o2)csc1NC(=O)COC(=O)c1cccs1	1%	0.0%	0%	-16
CNc1nc(Nc2ccc(C)c(Cl)c2)nc(N)c1[N+](=O)[O-]	-128%	5.1%	-3%	-4
Cc1ccc(C(=O)OC2=CC(=O)CC(C)(C)C2)cc1	-14%	-3.1%	-10%	-11
CCCCC(=O)NCc1ccc(Cl)cc1	-5%	-4.3%	-5%	-2
O=C(NCCCN1CCCCC1)c1ccc2c(c1)ncn2C1CCCC1	-16%	4.1%	-17%	·
CC(=O)c1c(C(C)=O)c(C)n(-c2ccc(O)cc2)c1C	1%	-3.2%	-3%	8
Cc1cccc(NC(=O)CN2CCCCCC2)c1	-5%	1.6%	10%	·
Cc1nn(C)c(C(=O)N2CCc3ccccc32)c1Br	-3%	-1.5%	14%	1
